NPYLR7 ag: mosquito NPYLR7 agonism. HEK293T NPYLR7/Galpha15, GCaMP6s calcium fluorescence. activation, % at 10 µM. 270,000 compounds, 0.15% hits; in the data active = activation above about 40%;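 note: 0% = vehicle and 100% = reference agonist at the receptor; some compounds past the cut are filed as inactive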
NPYLR7 ag max-min: further read-out of NPYLR7 ag, marked with its call; activation, %; measured here: Max-Min RFU normalised activation; some inactives read as strong as hits;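 span of the calcium signal over five minutes; 0% = vehicle and 100% = native peptide agonist; compound fluorescence can raise it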
* = called active by the depositor; & = joins results of further samples.

Structure,NPYLR7 ag,NPYLR7 ag max-min
CSc1nnc(SCc2cc(=O)n3cc(Br)ccc3n2)s1,-2,1
Clc1ccccc1N=c1oc2ccccc2cc1-c1nc2ccccc2[nH]1,-4,-6
Cn1cccc1C1CCCCCN1C(=O)c1ccc(NC2CC2)nc1 (centres undefined),8,2
CCc1c(C)cc(C(=O)N2CCCC(N(C)Cc3ccccc3)C2)c(=O)n1C (centres undefined),2,3
CC(NC(N)=O)C1CC2CCC1C2 (centres undefined),3,-1
COCc1nc(-c2cccc(CN3CCN(C(=O)C(CC(C)C)NC(C)=O)CC3)c2)no1 (centres undefined),2,6
Cc1nn(C)cc1C(C)NCc1c(C(=O)N(C)Cc2ccccc2)nc2ccccn12 (centres undefined),9,11
CCOC(=O)C1CCN(c2nc3ccccc3n3c(=O)n(CC(=O)NC(C)CC)nc23)CC1 (centres undefined),1,-2
CC1CN(C)c2ccccc2N(C(=O)c2cc(C(N)=O)cs2)C1 (centres undefined),3,1
CC(C)c1nc(N(C)S(C)(=O)=O)nc(-c2ccc(F)cc2)c1/C=C/[C@@H](O)C[C@@H](O)CC(=O)O,-8&-5,-18&-8
CN(C)c1ccc(C=Nc2cnn(C)c2C(N)=O)cc1,-3,-7
COc1cc2c(cc1C1CC(=O)Nc3[nH]ncc31)OCCCO2 (centres undefined),1,-6
O=C1C2C3C=CC(CC3)C2C(=O)N1/N=C\c1c(O)ccc2ccccc12 (centres undefined),-9,-10
CC(C)NS(=O)(=O)c1cc(C(=O)O)cc(-c2ccc(N3CCOCC3)cc2)c1,22,12
CC(=O)N1CCN(C(=O)C2(C)CCN2Cc2ccccc2OC(F)F)CC1 (centres undefined),2,-5
COc1cc(C=Nn2cn[nH]c2=S)cc(Br)c1O,5,9
Cn1ncnc1-c1ccnc(NCCCc2ccncc2)n1,-5,-8
Clc1cccc2c3c([nH]c12)CCN(Cc1cc2n(n1)CCNC2)C3,4,3
O=[N+]([O-])c1nn(-c2ccc3c(c2)OCCO3)n(O)c1=NCc1ccccc1Cl,-7,-11
Brc1ccc(C2=Nc3nnnn3C(c3ccccc3)C2)cc1 (centres undefined),-4&0,-6&-1
CCOc1ccccc1NC(=O)N(CCOC)CC(=O)N(CCc1ccc(OC)c(OC)c1)Cc1sccc1C,10,18
CC(=O)c1ccc(NC(=O)CSc2nc3c(c(=O)n2-c2cc(C)cc(C)c2)SCC3)cc1,-4,-8
CCc1cc(=O)[nH]c(-n2nc(C)cc2NC(=O)c2ccccc2[N+](=O)[O-])n1,6,1
COC(=O)Cn1c(C)c(C(C)=O)c(C(C)=O)c1C,13,2
O=C1Cc2ccccc2N1c1c(Cl)cccc1Cl,2,3
CC(C)CS(=O)(=O)c1ncc(CN2CCC(O)CC2)n1Cc1ccccc1,12,8
COc1cc(-c2cc(C(=O)O)c3[nH]c(C)nc3n2)cc(OC)c1O,3,1
CN1CC2(CCCN(c3nccc(C(F)(F)F)n3)CC2)OC1=O (centres undefined),14,1
COc1ccc(CCOC(=O)C2CCCCN2C(=O)CSc2ccc(C(F)(F)F)cn2)cc1OC (centres undefined),-7,-13
CCc1cc(Oc2ccc(C(C)=O)cc2)nc(SCc2cccc(OC)c2)n1,-9,-2
O=[N+]([O-])c1ccccc1S(=O)(=O)NCCOc1ccc(-c2ccccc2)nn1,-8,-16
CC1(C)ON=C(c2ccc3c(c2)OCO3)N(Cc2ccc3c(c2)OCO3)C1=O,0,-1
O=C(NC1CCc2[nH]c3ccccc3c2C1)c1ccc(SC(F)(F)F)cc1 (centres undefined),-13,-19
CCC(C(=O)N1CCN(c2nc(Cc3ccccc3)nc3c2c(C)nn3-c2ccc(F)cc2)CC1)c1ccccc1 (centres undefined),10,9
Cc1nnc(NC(=O)c2cccc(S(=O)(=O)N3CCOCC3)c2)s1,-3,-7
COc1ccc(SCCN(C)C)cc1,21,14
COc1cc(-c2ccc(/C=c3\sc4nc5cccnc5n4c3=O)o2)c(OC)cc1Cl,-10,-18
Cc1ccc(-n2nc(-c3ccccc3F)cc2C(=O)NCc2cccc(C(F)(F)F)c2)cc1,2,11
COCCN(Cc1ccc(C)o1)Cc1ccc(C(O)(c2cccs2)c2cccs2)o1,13,15
CC(C1CC2CCC1C2)N1CC(=O)C(c2nc3ccccc3[nH]2)C1=N (centres undefined),2&-2,0&-2
O=C(O)c1cccnc1CN1CCCC1CCc1ccccc1 (centres undefined),12,7
O=C(O)c1ccc(C=C2CSc3ccc(F)cc3C2=O)cc1,15,17
Cc1cc(C2CCCN2Cc2nc3ccsc3c(=O)[nH]2)no1 (centres undefined),2&0,1&-1
CCCCN(C)CC1CCN(C(=O)c2cccc(CC#N)c2)CC1,9,5
CCCCCn1c(CN2CCOCC2)nc2c1c(=O)n(C)c(=O)n2C,5,1
COc1ccc(C(=O)N2CCc3c(c(C(=O)N4CCOCC4)nn3CCC(C)C)C2)o1,12,2
Cc1ccc(-c2nnc(NC(=O)c3ccc(S(=O)(=O)N4CCOCC4)cc3)s2)cc1,-9,-11
CCCc1cc(=O)[nH]c(-n2nc(C)cc2NC(=O)C2CC2)n1,8,2
O=[N+]([O-])c1ccccc1SN=C1N=C2C=CC(Br)=CN2Cc2ccccc21,4,2
CN(CCCc1cnn(C)c1)c1nc(-c2cccnc2)nc2c1cnn2C,3,2
O=C(Cn1nc(-c2ccccc2)c2sc(N3CCOCC3)nc2c1=O)c1ccc2ccccc2c1,-1,-6
N#Cc1cnc(SCc2cccc([N+](=O)[O-])c2)nc1N,2,-1
COc1ccc(C(=O)N2CCC(Nc3cccnn3)CC2)cn1,-21,-24
O=S1(=O)CCC(N(C2CC2)S(=O)(=O)c2cccc(F)c2F)C1 (centres undefined),1,1
CN(C)S(=O)(=O)Nc1cc(F)c(F)cc1Cl,4,3
CCn1nc(C)c(NC(=O)CN2CCN(C(=O)C3CCCO3)CC2)c1C (centres undefined),5,-13
CN(CCCc1cnn(C)c1)Cc1ccnc2ccccc12,-4,-8
COC(Cn1cnc2ccc(F)cc2c1=O)c1cccs1 (centres undefined),6,3
NC(=O)Cn1c(CSc2ncc(-c3ccccc3)n2C2CC2)nc2ccccc2c1=O,10,2
CN(C)Cc1nc(Cl)c2c3c(sc2n1)CCCCC3,-10,-5

The listing continues.
| mol | NPYLR7 ag | NPYLR7 ag max-min |
| --- | --- | --- |
| O=C(Nc1ccccc1)c1c2c(nn1C1CCS(=O)(=O)C1)CCC2 (centres undefined) | -1 | -1 |
| Cc1cc(C(C)(C)C)cc(C)c1S(=O)(=O)Nc1c(C)nn(C)c1-n1cncn1 | -4 | -7 |
| CN1C[C@@H]2CC[C@H](CC1=O)N2C(=O)CCC(=O)Nc1cccc(F)c1 | 11 | 9 |
| Cc1ccc(-n2c(SCC(=O)Nc3nccs3)nc3c(c2=O)SCC3)cc1 | -3 | -3 |
| COc1ccc(C(=O)Nc2c(-c3cccc(F)c3)nc3cc(C)ccn23)cc1 | -9 | -1 |
| CCOC(=O)c1nn(-c2ccc(F)cc2)c(=O)cc1OS(=O)(=O)c1ccc(F)cc1 | -4 | -3 |
| CCCn1c(C)c(C)n2c3c(=O)n(CC(C)=O)c(=O)n(C)c3nc12 | -1 | 13 |
| COc1ccc(S(=O)(=O)NCCNc2cc(-n3nc(C)cc3C)ncn2)c(C)c1C | -9 | -13 |
| O=C(CCc1ccccc1)NCc1nnnn1C1CCCCC1 | -3 | -2 |
| CC(C)=CC1C(C(=O)NN2CC(=O)NC2=O)C1(C)C (centres undefined) | -1 | 12 |
| CCCCn1c(=O)c2c(nc3n(-c4ccc(S(N)(=O)=O)cc4)c(C)cn23)n(C)c1=O | 2 | 2 |
| CN(C)c1cc(N/N=C\c2cccc([N+](=O)[O-])c2)nc(N(C)C)n1 | -9 | -10 |
| CC(C)(C)c1cc(=O)[nH]c(=O)[nH]1 | -1 | -1 |
| CCOc1ccccc1NC1=NC2CS(=O)(=O)CC2S1 (centres undefined) | 3 | 1 |
| CCn1cc(CNC(=O)Nc2nnc(C(C)(C)C)s2)cn1 | -1 | -4 |
| O=C1CC(c2cccnc2N2CCOCC2)c2c(n[nH]c2-c2ccco2)N1 (centres undefined) | 5 | 3 |
| CNC(=O)[C@@H]1C[C@@H](N)CN1C(=O)c1ccc2c(c1)c1ccccc1n2C | 0 | -9 |
| COc1cc(OC)cc(-n2c(-c3cccnc3)n[nH]c2=S)c1 | -3 | -9 |
| Cc1cccc(NC(=O)NC(Cc2ccccc2)c2nnc(SCc3ccccc3)n2-c2ccc(Cl)cc2Cl)c1C (centres undefined) | 15 | 26 |
| CNC(=O)NC(=O)C(C)Sc1nc(C(C)C)n(-c2ccccc2)n1 (centres undefined) | -8 | -8 |
| Cn1ccnc1SCc1cc(=O)c(OC(=O)c2ccc(Cl)c([N+](=O)[O-])c2)co1 | -11 | -10 |
| CC1(C(=O)NS(=O)(=O)c2ccccc2)CCN1C(=O)Cc1ccccc1 (centres undefined) | -2 | -4 |
| CCOC(=O)C1CCCN(C(=O)c2cc(-c3ccc(Cl)cc3)n(-c3cccc(OC)c3)c2C)C1 (centres undefined) | -1 | 9 |
| CC(C)c1noc(OCCCc2cnn(C)c2)n1 | -1 | -7 |
| O=C(c1cccs1)N1N=C(c2cccs2)CC1c1cccs1 (centres undefined) | -5 | -5 |
| CC(=O)OC12CC3CC(C1)CC(C(=O)N1CCN4CCNC(=O)C4C1)(C3)C2 (centres undefined) | 4 | 4 |
| CC(NC(=O)Cn1ccc(=O)[nH]c1=O)c1cccc(-n2cccn2)c1 (centres undefined) | -1 | -2 |
| CCOC(=O)c1c(NC(=O)c2ccc(Oc3ccc(Cl)cc3)c([N+](=O)[O-])c2)sc2c1CCCC2 | -2 | -4 |
| CCSc1nnc(NC(=O)c2ccccc2Br)s1 | -5 | -12 |
| CN(C)c1ccc(NC(=O)C2C[C@H]2c2ccccc2)cc1C(=O)NCCCN1CCOCC1 (some centres undefined) | 6 | 5 |
| Cc1ccc(C)c(NC(=O)Nc2ccc(S(C)(=O)=O)cc2)c1 | -4 | -5 |
| Cc1nccc(C(=O)Nc2ccccc2OCCc2ccccc2)n1 | 6 | 5 |
| Cc1nc2c(OCC(N)=O)cccn2c1N(C)C(=O)CCC1CCCC1 | -5 | -7 |
| CC(C)C[C@@H](N)C(=O)N1CC(Oc2ccccc2F)C1 | -7 | -11 |
| COc1ccc(Cn2ccnc2CN(CCN(C)C)C(=O)c2ccc(F)cc2)cc1 | 5 | 12 |
| CN(C)c1ccc(NC(=O)c2ccco2)cc1CN(CC1CC1)S(=O)(=O)c1ccc(F)cc1 | 0 | 0 |
| Cc1csc(NC(=O)CSc2ccc3nnc(CCNC(=O)c4ccccc4)n3n2)n1 | 4 | -5 |
| Cc1ccccc1OCC(=O)Nc1ccc(-n2ccnc2)cc1C(F)(F)F | 9 | 5 |
| CC(=O)c1c(C)oc2ccc(N(C(C)=O)S(=O)(=O)c3ccc(C(C)(C)C)cc3)cc12 | 4 | 13 |
| N#CC(=Cc1ccc2c(c1)OCO2)c1nc2cc(C(F)(F)F)ccc2s1 | 5 | 4 |
| O=c1ccc(-c2ccc(F)cc2)nn1CCNS(=O)(=O)c1ccc(Cl)s1 | -4 | -2 |
| Cc1cccc(C(=O)N2CCC3(CCCN(CCC4CCCCC4)C3)C2)n1 (centres undefined) | 6 | 8 |
| COc1cccc(OC)c1C(=O)N1CCC2(CC1)OCC(C(=O)NCc1cccnc1)N2C(=O)c1ccc(F)cc1 (centres undefined) | 2 | 7 |
| C=CCNc1nnc(SCC(=O)NC2CCS(=O)(=O)C2)s1 (centres undefined) | 6 | 10 |
| O=C(O)c1cccnc1SC1CC(=O)N(c2ccc3c(c2)OCO3)C1=O (centres undefined) | -4 | -10 |
| Cc1[nH]c(=S)sc1CC(=O)N(Cc1ccccc1Br)C1CC1 | 5 | 3 |
| CN(CCCOc1ccccc1)C(=O)C1CNC(=O)N1 (centres undefined) | 5 | 3 |
| O=C1CCNc2c(Br)cc(Br)cc2N1 | 4 | -3 |
| CC1CCN(CC[C@@H]2CC[C@H](O)[C@@H](C(=O)N3CCOCC3)O2)CC1 | -5 | -13 |
| CCCCn1c(=O)n(Cc2cc(=O)n3ccsc3n2)c(=O)c2c1ncn2CCOC | -7 | -9 |
| O=c1c2c(n3nnnc3n1Cc1ccccc1)-c1ccccc1CC21CCCCC1 | -1 | 2 |
| COc1cc2oc3ccccc3[nH]c2c2c(=O)c3ccccc3c(=O)c12 | -1 | -4 |
| Cc1ccccc1N1CCN(CN2C(=O)NC(Cc3ccccc3)C2=O)CC1 (centres undefined) | 4 | -1 |
| Cc1ccc(-c2ccc3nnc(SCC(=O)N4CCN(c5ccccc5)CC4)n3n2)cc1 | -13 | -9 |
| N#Cc1c(-c2ccccc2)no[n+]1[O-] | 5 | -36 |

Part of the list above, with each value named:
> CN(CCCOc1ccccc1)C(=O)C1CNC(=O)N1 (centres undefined)
- NPYLR7 ag: 5
- NPYLR7 ag max-min: 3
> CN(C)c1ccc(NC(=O)c2ccco2)cc1CN(CC1CC1)S(=O)(=O)c1ccc(F)cc1
- NPYLR7 ag: 0
- NPYLR7 ag max-min: 0
> N#Cc1c(-c2ccccc2)no[n+]1[O-]
- NPYLR7 ag: 5
- NPYLR7 ag max-min: -36
> Cc1ccccc1OCC(=O)Nc1ccc(-n2ccnc2)cc1C(F)(F)F
- NPYLR7 ag: 9
- NPYLR7 ag max-min: 5

Molecules shown so far that have a CF3 group:
| mol | NPYLR7 ag | NPYLR7 ag max-min |
| --- | --- | --- |
| CN1CC2(CCCN(c3nccc(C(F)(F)F)n3)CC2)OC1=O (centres undefined) | 14 | 1 |
| COc1ccc(CCOC(=O)C2CCCCN2C(=O)CSc2ccc(C(F)(F)F)cn2)cc1OC (centres undefined) | -7 | -13 |
| O=C(NC1CCc2[nH]c3ccccc3c2C1)c1ccc(SC(F)(F)F)cc1 (centres undefined) | -13 | -19 |
| Cc1ccc(-n2nc(-c3ccccc3F)cc2C(=O)NCc2cccc(C(F)(F)F)c2)cc1 | 2 | 11 |
| Cc1ccccc1OCC(=O)Nc1ccc(-n2ccnc2)cc1C(F)(F)F | 9 | 5 |
| N#CC(=Cc1ccc2c(c1)OCO2)c1nc2cc(C(F)(F)F)ccc2s1 | 5 | 4 |

Only part of the results is shown, so the mix of outcomes need not match the whole.
